Screening data: PubChem BioAssay, Johns Hopkins Ion Channel Center
KCNQ2 pot: KCNQ2 (rat) channel potentiation; O88943; CHO-K1 KCNQ2, FluxOR thallium flux fluorescence; stronger effect = higher value; B-score at 10 µM; 310,000 compounds, 0.54% hits;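 active = fluorescence ratio B-score at least 3 SD of library B-scores, with initial fluorescence B-score within 3 SD, cut at about 5.3 in these data; same plate scores as AID 2156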;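 note: B-score of peak minus minimum over baseline fluorescence ratio after K+ and Tl+ stimulus; positive B-score means potentiation of KCNQ2 with more thallium influx and brighter signal; only the inactives scoring about 0 or higher are listed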
Target sequence (O88943 whole entry, looked up): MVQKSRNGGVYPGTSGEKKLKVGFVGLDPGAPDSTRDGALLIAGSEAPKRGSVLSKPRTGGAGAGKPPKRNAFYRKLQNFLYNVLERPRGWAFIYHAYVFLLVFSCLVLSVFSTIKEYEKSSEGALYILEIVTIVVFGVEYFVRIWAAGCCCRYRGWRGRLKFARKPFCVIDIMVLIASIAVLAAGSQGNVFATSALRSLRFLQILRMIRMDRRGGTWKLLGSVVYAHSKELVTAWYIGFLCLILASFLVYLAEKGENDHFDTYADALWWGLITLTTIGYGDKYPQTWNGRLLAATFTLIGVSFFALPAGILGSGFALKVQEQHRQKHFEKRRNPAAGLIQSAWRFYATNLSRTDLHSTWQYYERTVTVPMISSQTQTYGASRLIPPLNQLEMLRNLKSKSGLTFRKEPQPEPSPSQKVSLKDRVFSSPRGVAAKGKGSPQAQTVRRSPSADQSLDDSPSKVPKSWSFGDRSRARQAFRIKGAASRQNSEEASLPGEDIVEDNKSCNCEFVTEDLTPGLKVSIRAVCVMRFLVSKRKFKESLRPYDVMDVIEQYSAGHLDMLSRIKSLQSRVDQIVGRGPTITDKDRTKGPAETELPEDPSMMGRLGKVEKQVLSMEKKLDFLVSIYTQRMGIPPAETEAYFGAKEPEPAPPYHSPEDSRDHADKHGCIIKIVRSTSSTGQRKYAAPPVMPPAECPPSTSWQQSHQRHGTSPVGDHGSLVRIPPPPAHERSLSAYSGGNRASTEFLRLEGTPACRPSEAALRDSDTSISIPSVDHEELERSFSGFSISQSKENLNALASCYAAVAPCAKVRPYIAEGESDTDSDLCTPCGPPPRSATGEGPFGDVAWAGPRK
KCNQ2 pot baseline: second read-out of KCNQ2 pot, no call of its own (marks repeat the call); B-score; compound at 10 µM; measured here: initial fluorescence intensity artifact check;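 brightness before thallium and not channel activity; 0 = typical well and far values either way flag optical interference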
Numbers without * were called inactive.

SMILES | KCNQ2 pot | KCNQ2 pot baseline
OCCN1CCN(C(=S)c2ccc(Br)cc2)CC1 | 1.86 | -0.6
CCC/C(=N\NC(=O)CNC(=O)c1ccc(Cl)cc1)c1ccccc1 | 0.01 | 0.01
COc1ccccc1-c1nc(-c2ccccc2)[nH]c(=O)c1C#N | 1.41 | -0.49
CN(C)C(=O)c1ccc(NC(=O)c2ccc(-c3ccc(Cl)cc3)o2)cc1 | 1.38 | -1.63
Cc1coc2c1c(C)cc1oc(=O)c(CC(=O)NCC(=O)O)c(C)c12 | 0.74 | 1.73
CCCC(=O)Nc1ccc(Cl)c(NC(=O)C(C)(C)C)c1 | 1.82 | -0.01
CCn1c(CC(=O)Nc2ccccc2F)nnc1SCC(=O)Nc1nnc(C)s1 | 0.2 | 0.87
COc1ccccc1Nc1nc(N)nc(CSc2ncccn2)n1 | 0.66 | -0.2
Cc1cccc(OCCC(=O)NCC(=O)Nc2cccc(C)c2C)c1 | 0.23 | -0.15
CCOc1ccc(N2C(=O)CC(SC(=NC)Nc3ccc4c(c3)OCO4)C2=O)cc1 (stereo not given) | 0.32 | -2.85
N#Cc1ccccc1NC(=O)COC(=O)c1ccc(F)cc1F | 0.37 | -0.31
CCOc1ccccc1Oc1coc2cc(OC)ccc2c1=O | 0.82 | 0.04
CC1(C)N=c2ccc([N+](=O)[O-])c(N)c2=[N+]1[O-] | 0.45 | -0.95
CCOC(=O)C1(CCOC)CCN(C2C3CC4CC(C3)CC2C4)CC1 (stereo not given) | 1.13 | -0.87
Cc1nc2nc(C)c(NS(=O)(=O)c3cccs3)c(=O)n2[nH]1 | 1.93 | 0.88
Cc1cc(OCC(=O)NCc2ccccn2)c2c(C)cc(=O)oc2c1 | 0.58 | 1.07
COc1cc(NC(=O)CSc2nnnn2C2CCCC2)cc(OC)c1 | 0.92 | -0.07
CC(=O)N1N=C(c2ccc(C)o2)CC1c1cccc(F)c1 (stereo not given) | 0.04 | -0.83
CN1CCc2c1nc1ccccc1c2N=C1CCCN1Cc1ccccc1 | 0.02 | -1.15
CN(C)N1C(N)=C(C#N)C(c2ccsc2)C2=C1CC(C)(C)CC2=O (stereo not given) | 0.01 | -1.31
NC(=O)NC(=O)CSc1ccccc1 | 0.82 | 0.47
COc1ccc(NC(=O)c2csc(Cc3ccccc3)n2)cc1 | 0.08 | 1.52
O=C(NCCCn1ccnc1)/C(=C/c1ccc(Cl)cc1)NC(=O)c1ccccc1 | 0.02 | 0.6
COc1cccc2c(=O)ccoc12 | 0.22 | 0.19
COC(=O)Cc1[nH]n(-c2ccccc2)c(=O)c1C(C)=Nc1ccccc1 | 0.04 | -0.84
O=C(Nc1ccc(Br)cc1)Nc1ccccc1F | 1.82 | 0.12
CN(C)S(=O)(=O)c1cccc(C(=O)Nc2n[nH]c(C(F)(F)F)n2)c1 | 1.04 | 0.84
c1ccc(C2CC(c3cccs3)Nc3nnnn32)cc1 (stereo not given) | 0.2 | 0.34
O=C1CCN(S(=O)(=O)c2ccccc2)CCN1CCOCc1ccc(C(F)(F)F)cc1 | 0.01 | -1.03
Cc1cc(=O)oc2cc(OCC(=O)N(C)C3CCS(=O)(=O)C3)c(Cl)cc12 (stereo not given) | 1.19 | 0.32
Clc1ccc(CNc2nnnn2-c2ccccc2)c(Cl)c1 | 0.39 | 0
O=C(O)CN1C(=O)CSC1=S | 0.25 | -0.44
CC(C)CNC(=O)C1CCN(c2ccc(S(=O)(=O)N3CCOCC3)cc2[N+](=O)[O-])CC1 | 0.01 | -3
CC(C)c1ccc(/C=N/NC(=O)C(=O)NCCCN2CCOCC2)cc1 | 0.25 | 2.21
Cc1ccc(NC(=O)C2(N(C(=O)Cn3nnnc3N)c3ccc(C)cc3)CCCCC2)cc1 | 3.34 | 0.82
Cn1c(COc2ccc3ccccc3c2)nnc1SCC(N)=O | 0.42 | 1.02
Cc1ccc(C(=O)O/N=C(\N)c2cccnc2)cc1[N+](=O)[O-] | 2.16 | -0.1
CCCn1c(=O)[nH]c(=O)c2c(C(=O)OCC)cc(-c3cccs3)nc21 | 1.18 | 1.65
NS(=O)(=O)c1ccc(CNC(=O)NC23CC4CC(CC(C4)C2)C3)cc1 | 0.67 | -0.91
O=C1Nc2ccc(Cl)cc2C(=O)C1(F)c1ccccc1 (stereo not given) | 0.39 | -0.02
Cc1ccc(NC(=O)COC(=O)CCc2nc3ccccc3c(=O)[nH]2)c(Br)c1 | 0.1 | 0.97
O=C(Nc1ccc(Cl)c([N+](=O)[O-])c1)Nc1nc2ccccc2s1 | 0.01 | -1.16
O=C1C2C3C=CC([C@@H]2C(=O)N1C1CCCCC1)[C@H]1C(=O)N(C2CCCCC2)C(=O)C31 (stereo not given in full) | 0.01 | 1.64
CCOc1ccc(N2C(=O)C3ON(C)C(c4ccc([N+](=O)[O-])cc4)C3C2=O)cc1 (stereo not given) | 0.64 | -0.01
O=C(Nc1cccc(NC(=O)c2ccccc2Cl)c1)c1ccc(F)cc1 | 4.32 | 1.34
CCCS(=O)(=O)N1CCCC(C(=O)NCCN(CC)CC)C1 (stereo not given) | 0.72 | -0.57
CC(OC(=O)c1cccnc1)C(=O)NCc1ccc2c(c1)OCO2 (stereo not given) | 0.39 | -0.05
Cc1nn(Cc2ccc(Cl)cc2)c(C)c1NC(=O)c1noc2c1CCc1ccccc1-2 | 0.06 | 0.33
Cc1nc(C(C)N(C)Cc2c(C(=O)N3CCCCC3)nc3c(C)cccn23)c(C)s1 (stereo not given) | 0.07 | 0.04
O=C(Nc1cccc(Cl)c1)c1ccncc1 | 1.85 | 4.4
O=C1COc2ccc(S(=O)(=O)NCCc3ccccc3)cc2N1 | 2.29 | 1.12
CCOC(=O)c1c(C)c(C(=O)NC(C)COC)c(C)n1CC (stereo not given) | 0.15 | 1.44
Cc1ccoc1C(=O)NCc1occc1C(=O)O | 0.75 | -0.08
O=C(NCC1CCCO1)c1cccc(Oc2c(Cl)cccc2[N+](=O)[O-])c1 (stereo not given) | 1.21 | 0.81
CCN(CCN1CCCC1)C(=O)c1cc(COc2ccccc2SC)on1 | 0.05 | -0.2
COc1ccc(OCC2CNC(=O)O2)cc1 (stereo not given) | 0.6 | -0.28
CCOc1ccc(NC(=O)CN(C)C(=O)c2cn3ccccc3n2)cc1OCC | 0.24 | 0.3
COc1ccc(CNC(=O)c2ccc3ccccc3n2)cc1OC | 1.03 | -1.66
Cc1cccc(S(=O)(=O)NCCNS(=O)(=O)c2cccc(C)c2)c1 | 0.62 | -0.49
COc1ccc2sc(NC(=O)c3ccco3)nc2c1 | 0.45 | 0.01

Ordered by formula weight (rising): part of the list above
SMILES | KCNQ2 pot | KCNQ2 pot baseline
COc1ccc(OCC2CNC(=O)O2)cc1 (stereo not given) | 0.6 | -0.28
O=C(Nc1cccc(Cl)c1)c1ccncc1 | 1.85 | 4.4
Cc1ccoc1C(=O)NCc1occc1C(=O)O | 0.75 | -0.08
COc1ccc2sc(NC(=O)c3ccco3)nc2c1 | 0.45 | 0.01
CCOC(=O)c1c(C)c(C(=O)NC(C)COC)c(C)n1CC (stereo not given) | 0.15 | 1.44
COc1ccc(CNC(=O)c2ccc3ccccc3n2)cc1OC | 1.03 | -1.66
O=C1COc2ccc(S(=O)(=O)NCCc3ccccc3)cc2N1 | 2.29 | 1.12
CCCS(=O)(=O)N1CCCC(C(=O)NCCN(CC)CC)C1 (stereo not given) | 0.72 | -0.57
O=C(Nc1cccc(NC(=O)c2ccccc2Cl)c1)c1ccc(F)cc1 | 4.32 | 1.34
O=C(NCC1CCCO1)c1cccc(Oc2c(Cl)cccc2[N+](=O)[O-])c1 (stereo not given) | 1.21 | 0.81
CCN(CCN1CCCC1)C(=O)c1cc(COc2ccccc2SC)on1 | 0.05 | -0.2
CCOc1ccc(N2C(=O)C3ON(C)C(c4ccc([N+](=O)[O-])cc4)C3C2=O)cc1 (stereo not given) | 0.64 | -0.01
Cc1nc(C(C)N(C)Cc2c(C(=O)N3CCCCC3)nc3c(C)cccn23)c(C)s1 (stereo not given) | 0.07 | 0.04
Cc1nn(Cc2ccc(Cl)cc2)c(C)c1NC(=O)c1noc2c1CCc1ccccc1-2 | 0.06 | 0.33

The listing picks up; the 2 compounds before the break are reprinted first.
SMILES | KCNQ2 pot | KCNQ2 pot baseline
Cc1cccc(S(=O)(=O)NCCNS(=O)(=O)c2cccc(C)c2)c1 | 0.62 | -0.49
COc1ccc2sc(NC(=O)c3ccco3)nc2c1 | 0.45 | 0.01
Cc1ccsc1/C=N/n1c(-c2ccccn2)n[nH]c1=S | 1.4 | 1.16
COc1ccccc1CCc1nnc(CCC(=O)NCCCOc2cccnc2)o1 | 0.83 | 0.15
COc1ccccc1-c1c(C)nn2c(N3CCOCC3)cc(C)nc12 | 0.51 | 0.93
COc1ccc(CCNC(=O)c2ccc3c(c2)NC(=O)C(CSCc2cc(C)ccc2C)N3)cc1OC (stereo not given) | 0.6 | 0.45
COC(=O)C(NC(=O)c1c(C)nn(C)c1Cl)c1ccccc1 (stereo not given) | 1.38 | 0.39
CCc1sc(NC(=O)c2cc3ccccc3oc2=O)nc1-c1cccs1 | 0.22 | 1.92
CC1=NN(c2ccc(Cl)cc2)C(=O)C1C(c1cccc(O)c1)c1c(C)[nH]n(-c2ccc(Cl)cc2)c1=O (stereo not given) | 4.75 | -0.53
Cc1cc2c(cc1C)[n+](C)cn2CC(O)COCC1CC=CCC1 (stereo not given) | 2.47 | -0.04
O=C(CCn1c(=O)oc2ccccc21)NCCCN1CCN(c2ccc(F)cc2)CC1 | 0.03 | -0.01
COc1ccccc1N1CCN(C(=O)C2CCN(S(=O)(=O)c3ccc(C)cc3)CC2)CC1 | 0.36 | 2.86
CC(Oc1cc2oc(=O)c3c(c2cc1Cl)CCC3)C(=O)NCc1ccncc1 (stereo not given) | 1.32 | -2.12
CC1Cc2cc(/C=C3/SC(=S)NC3=O)ccc2O1 (stereo not given) | 10.2* | -0.86*
CCCCN1C=CC(=C2C(=O)c3ccccc3C2=O)C=C1 | 0.39 | -0.73
O=C1c2ccccc2NC(c2ccc(Br)s2)N1O (stereo not given) | 7.79* | 3.17*
NNC(=O)CNC(c1ccccc1)c1cc(Cl)ccc1NC(=O)c1ccccc1 (stereo not given) | 1.04 | 0.81
COc1ccc(NC(=O)CC2CCCCC2)cc1OC | 1.67 | -2.65
COCCNc1nnc(SCC(=O)N2CCN(S(=O)(=O)c3ccccc3)CC2)s1 | 0.57 | -0.31
CC(=O)Nc1ccc2ccccc2c1 | 0.41 | -0.33
COc1ccc(-c2noc(-c3ccc(Cl)cc3[N+](=O)[O-])n2)cc1OC | 0.3 | -1.52
CCOc1ccc2c(c1)c(=O)c(S(=O)(=O)c1ccc(CC)cc1)cn2C | 0.33 | 0.05
Cc1ccc(S(=O)(=O)NCCSc2ccccc2)cc1[N+](=O)[O-] | 0.94 | -1.93
Cc1cc(C)cc(N2CC(c3nc4ccccc4n3C)CC2=O)c1 (stereo not given) | 2.48 | -0.67
COC(=O)C1=C(C)N(CCCC(=O)O)C(=O)NC1c1ccc(Cl)cc1 (stereo not given) | 0.38 | -0.05
CCCCN(CC)CCCNC(=S)Nc1ccc2nc(N3CCN(CC)CC3)cc(C)c2c1 | 1.49 | -0.21
CC1(C)CC(=O)C=C(NCCN2CCN(C(=S)Nc3ccccc3)CC2)C1 | 0.27 | -0.96
COCCn1c(SCc2cccnc2)nnc1-c1ccco1 | 0.23 | -0.85
COc1ccccc1OCCNC(=O)c1cccc(S(=O)(=O)N2CC(C)OC(C)C2)c1 (stereo not given) | 0.63 | 0.78
Cc1ccc(/C=C/C(=O)NN2CCN(C)CC2)cc1 | 1.74 | 0.3
CN1N=C(C(C)(C)C)CC1=O | 0.49 | -0.02
Cc1ccc(S(=O)(=O)N2CCOCC2)cc1NC(=O)COC(=O)c1ccccc1OCc1c(C)noc1C | 0.33 | 0.22
CCOC(=O)/C(C#N)=C/c1cc2ccc(C)cc2nc1Cl | 0.81 | -0.29
O=C1N[C@@H](Cc2ccccc2)C(=O)N2[C@@H]3N(S(=O)(=O)c4ccccc4)c4ccccc4[C@]3(Br)C[C@@H]12 | 0.37 | -0.01
COc1ccc(-c2nnnn2-c2ccc(F)cc2F)cc1 | 0.31 | -0.08
COc1cc2c(cc1OC)C1Cc3ccc(OC)c(OC)c3C[N+]1([O-])CC2 (stereo not given) | 0.75 | -0.01
CC1Oc2ccccc2C=C1/C=N/NC(=O)c1ccncc1 (stereo not given) | 0.51 | 0.92
COc1cc(/C(C)=N/NC(=O)CSc2nnc(C)s2)ccc1O | 1.63 | 2.2
O=C(Nc1nnc(-c2ccc(Br)cc2)o1)c1ccco1 | 16.5* | 0.13*
CCOC(=O)c1c(C)[nH]c(=S)c(C#N)c1-c1ccc(Cl)cc1 | 3.95 | -0.02
COc1cc(CC(NC(C)=O)C(=O)NC2CCN(c3c4c(nc5ncnn35)CCC4)CC2)cc(OC)c1 (stereo not given) | 0.42 | -2.13
Cc1ccc2c(COC(=O)c3ccccc3OC(F)F)cc(=O)oc2c1 | 0.03 | 0.68
O=C(O)COc1ccc2c(c1)CCCC2 | 0.2 | -0.72
O=C(N/N=C/c1ccncc1)c1cc([N+](=O)[O-])cc([N+](=O)[O-])c1 | 1.05 | -3.14
CCOC(=O)c1cnn(CCOC(=O)C2CC2)c1NC(=O)C1CC1 | 0.13 | 0.22
COc1ccc(C(=O)Nc2c(N)nc(SCC(=O)Nc3ccc(C(C)=O)cc3)[nH]c2=O)cc1 | 0.17 | 1.14
C=CCSc1nc(N)cc(=O)[nH]1 | 0.32 | 2.63
O=C(NC1CCCC1)c1cc(-c2ccccc2)on1 | 2.15 | 0.52
C=C1CCC[C@]2(C)C[C@H]3OC(=O)C(CNCC(OC)OC)[C@H]3CC12 (stereo not given in full) | 1.62 | -0.01
O=C1C(Cl)=C(N2CCOCC2)C(=O)N1c1ccc(Br)cc1 | 2.88 | -1.2
CN(C)c1ccc(O)c2c1CC1CC3C(N(C)C)C(=O)C(C(N)=O)=C(O)[C@@]3(O)C(=O)C1=C2O (stereo not given in full) | 0.13 | -0.02

These rows are one share of the data (hit frequency here may not be typical).
